# Bfl-1 A1 inh: inhibitors of the anti-apoptotic protein A1, read as caspase activation; caspase activation, % (test concentration not listed); hit rate 0.066% among 330,000; MEF A1-2A-BIM cells, Caspase-Glo 3/7 luminescence, 3 h; percent of clofoctol response, vehicle zero;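 active = over half of replicate activation scores above 10%, or exactly half above 10 with the replicate mean above 10; inconclusive = replicate mean below 10 yet half the replicates above 10; inactive = over half of replicates below 10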;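 also: wells of about 30 µL received 50 nL stock; many hits fall short of the cut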
# RanGTP-Imp inh: disruptors of Ran-importin-beta complex formation – biochemical, FRET, CFP-Ran, YFP-importin-beta, homogeneous, primary screen | hit rate 1.1% among 300,000 | inhibition, % (no concentration beside the values) | AID 2216 | cell-free CFP-Ran/YFP-importin-beta FRET ratio;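 active = most replicates above 15%; inconclusive = exactly half above 15%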;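 also: 0% = DMSO wells and 100% = Ran loaded with GDP instead of GTP; wells of about 40 µL received 100 nL stock; the first replicate is given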
# LANA-H2B inh: blocks KSHV LANA binding to histone H2A/H2B; cell-free LANA-H2A/H2B peptide, fluorescence polarization; inhibition, % (no concentration beside the values); Q9QR71; hit rate 0.6% among 320,000; AID 2629; in the data active = inhibition mostly above about 10%, no sharp cut-off; inactive = mostly below about 6.7%;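 also: stock transfer was 7.5 nL into about 10 µL; 0% = median of vehicle wells and 100% = median of positive control wells; one replicate is shown; the record names a cut of 25% in any replicate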
# Target sequence (Q9QR71 whole entry, looked up): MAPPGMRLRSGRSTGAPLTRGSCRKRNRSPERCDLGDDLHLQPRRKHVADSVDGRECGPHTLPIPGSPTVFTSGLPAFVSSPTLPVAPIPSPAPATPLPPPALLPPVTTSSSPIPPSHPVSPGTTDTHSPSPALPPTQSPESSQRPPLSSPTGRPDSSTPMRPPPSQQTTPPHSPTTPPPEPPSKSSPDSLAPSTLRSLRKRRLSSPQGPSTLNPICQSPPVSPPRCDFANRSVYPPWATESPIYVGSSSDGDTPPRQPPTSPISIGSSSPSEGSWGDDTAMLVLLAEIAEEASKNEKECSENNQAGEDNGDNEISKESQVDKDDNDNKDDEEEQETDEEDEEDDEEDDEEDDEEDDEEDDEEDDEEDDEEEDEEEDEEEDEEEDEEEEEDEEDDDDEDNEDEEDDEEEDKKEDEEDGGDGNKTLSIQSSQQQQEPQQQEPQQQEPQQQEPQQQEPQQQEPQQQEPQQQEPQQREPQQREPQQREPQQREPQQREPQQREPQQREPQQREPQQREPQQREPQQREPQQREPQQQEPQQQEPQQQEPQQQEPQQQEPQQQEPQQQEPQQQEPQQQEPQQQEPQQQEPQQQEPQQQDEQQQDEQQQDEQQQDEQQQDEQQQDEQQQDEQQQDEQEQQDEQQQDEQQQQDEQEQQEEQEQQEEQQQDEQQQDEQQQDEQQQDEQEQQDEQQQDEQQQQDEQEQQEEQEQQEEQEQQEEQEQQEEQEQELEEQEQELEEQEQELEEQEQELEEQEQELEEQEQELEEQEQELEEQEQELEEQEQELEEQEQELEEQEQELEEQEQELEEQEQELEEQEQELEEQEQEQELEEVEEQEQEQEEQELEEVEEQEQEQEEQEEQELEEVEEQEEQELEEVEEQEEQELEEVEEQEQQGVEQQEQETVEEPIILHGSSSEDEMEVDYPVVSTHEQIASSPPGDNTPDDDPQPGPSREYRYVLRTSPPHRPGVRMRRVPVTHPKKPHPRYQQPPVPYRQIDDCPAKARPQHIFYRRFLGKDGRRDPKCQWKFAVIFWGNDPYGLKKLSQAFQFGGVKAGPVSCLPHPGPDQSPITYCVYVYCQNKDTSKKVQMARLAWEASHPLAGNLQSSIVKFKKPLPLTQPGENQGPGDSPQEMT
# Vif TR-FRET: HIV-1 Vif–A3G interaction blockers – biochemical, TR-FRET, GST-Vif 1-94, biotin-A3G peptide, dose response retest, primary screen (AID 1117319). TR-FRET GST-Vif / biotin-A3G peptide binding; higher % means a stronger effect; test concentration not given here; strong numbers were not always called active. hit rate 0.57% among 260,000. one-dose inhibition, %; IC50 in µM for titrated hits;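 active = above the screen mean plus three standard deviations and confirmed in dose response; inconclusive = results disagree or hit not tested in dose response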;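 also: Vif residues 1-94 fused to GST binding biotinylated APOBEC3G peptide 110-148; 0% = full assay without inhibitor and 100% = GST in place of GST-Vif; retest series ran down from 100 µM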
# T cruzi repl: T. cruzi replication inhibition; T. cruzi beta-gal in NIH3T3, luminescence, 90 h; inhibition, % (concentration not given with the values); hit rate 1.4% among 300,000;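 active = mean inhibition across valid replicates above about 55%, limit read from the data; inconclusive = mean below that limit but half or more replicates reach it; inactive = mean below it, under half of replicates reach it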;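 also: signal also drops with host cell toxicity which is not excluded here; 0% = plate median of DMSO wells and 100% = zero luminescence signal; higher percent means less beta-gal luminescence so fewer parasites; stock transfer was 50 nL into about 50 µL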
# Beta apoptosis: blocks beta cell apoptosis | INS-1E cytokine-induced death, ATP luminescence, 48 h; percent of positive-control rescue, neutral wells zero | protection from apoptosis, % (concentration not given with the values) | hit rate 0.8% among 300,000;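 active = all replicates at 75% or more, or half of them and the mean; inconclusive = half reach 75% but not the mean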;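 also: 0% = cytokine-treated negative control wells and 100% = positive control rescue; higher means more ATP so stronger rescue from cytokine killing; wells of about 40 µL received 100 nL stock; the first replicate is given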
# MLL AF4-AF9 inh: inhibitors of human MLL-AF4/AF9 interaction; P42568; AlphaScreen, biotin-AF4 peptide binding to FLAG-AF9; inhibition, % at 10 µM; hit rate 0.47% among 350,000;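 active = every replicate reaching a set inhibition limit, whatever the replicate mean, cut at about 25% in these data; inconclusive = mean inhibition reaches that limit but some replicates miss it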;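 also: 0% = plate neutral control median and 100% = total signal loss; the record names both 10 and 1 µM as test concentration; the first replicate is given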
# Calb FLC: affects C. albicans growth with fluconazole | growth inhibition, % (concentration not given with the values) | hit rate 0.57% among 300,000 | AID 1979 | C. albicans CaCi-2 (fluconazole-resistant clinical isolate) + fluconazole, Alamar Blue growth, 48 h;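 active = most replicates above 75%; inconclusive = exactly half above 75%; inactive = most below 75%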;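 also: all wells also contain fluconazole at 8 µg/ml as a sub-toxic cotreatment; 0% = median of DMSO wells and 100% = median of geldanamycin control wells; wells of about 8 µL received 7.5 nL stock; the first replicate is given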
# Numbers without * were called inactive; ? = inconclusive; · = not tested or not shown. Rows are unselected. Share with any hit: about 4.3%.
SMILES,Bfl-1 A1 inh,RanGTP-Imp inh,LANA-H2B inh,Vif TR-FRET,T cruzi repl,Beta apoptosis,MLL AF4-AF9 inh,Calb FLC
CCOc1ccc(-c2nc(C#N)c(NCC3CCCO3)o2)cc1 (stereo not given),-0.2,1.5,-4.8,1%,-1,-6,·,-22
Cc1c(NCc2cc(Cl)ccc2O)c(=O)n(-c2ccccc2)n1C,0.7,2.8,-0.3,-2%,10,4,·,4
O=C1C(=O)N(CCCN2CCOCC2)C(c2cccs2)/C1=C(/O)c1ccc2c(c1)OCO2 (stereo not given),·,2.3,·,22%,-22,·,·,3
O=S(=O)(CCSc1nc2ccccc2o1)c1nc2ccccc2s1,-0.3,-3.7,-6.0,11%,-14,-3,6.2,19
COc1cccc(OCC(Cn2cnc3ccccc32)OC(C)=O)c1 (stereo not given),0.8,0.9,2.7,6%,5,-4,1.5,-8
C[N+](C)(C)CCCCCCC(=O)/C=N/O,-0.5,-0.6,-1.8,-1%,-4,-4,-15,-4
C=CCn1c(SCC(=O)N2CCc3ccccc3C2)nnc1-c1ccncc1,0.0,4.5,-3.7,6%,-11,-1,·,-9
COc1ccc2nc(NC(=O)Cn3cnc4c(=O)n(C)c(=O)n(C)c43)sc2c1,0.2,6.8,-3.4,-1%,-22,-1,·,6
COc1ccc(CCn2c(-c3ccccc3)nc3c(c(=O)c4ccccc4n3C)c2=O)cc1,-0.7,3.0,-1.4,?,15,4,·,30
c1ccc(CSc2n[nH]c(-c3ccco3)n2)cc1,-1.1,2.7,3.4,28%,-2,-8,·,-7
O=C(Cn1cnc2ccccc2c1=O)NCCC(=O)N1CCN(c2ccccc2)CC1,0.8,1.2,-0.8,12%,-2,-2,·,6
O=C(CCCc1c[nH]c2ccccc12)NCc1ccccc1F,0.1,5.9,7.2,·,14,2,-2.9,-1
CC(C)(C)NC(=O)C(c1cccs1)N(CC1CCCO1)C(=O)Cn1nnc(-c2cccs2)n1 (stereo not given),-0.4,-1.2,3.0,-3%,11,-8,·,-4
NC(=S)Nc1cc(Cl)cc(Cl)c1,1.3,-1.3,2.0,1%,11,-14,1.7,12
Fc1ccccc1/C=N/Nc1nn[nH]n1,-1.0,3.9,2.8,5%,4,-1,·,19
CC(C)(C)C(=O)N1CCN(c2nc3ccccc3o2)CC1,-0.3,-1.7,0.4,·,-4,1,-1.6,5
CCCCc1nc2sc3c(=O)n(N)cnc3c2c2c1CCCC2,0.6,-4.5,-1.4,·,12,7,-0.8,11
COC(=O)[C@@]12CCCCN1[C@H](c1ccc(-c3cccc(Cl)c3)c(OC)c1)[C@@H]1C(=O)N(C)C(=O)[C@@H]12,-1.3,4.2,-0.2,·,56*,18,1.7,11
COc1ccc(CNC(=O)C2CCCN(S(=O)(=O)N3CC(C)CC(C)C3)C2)c(OC)c1 (stereo not given),0.5,1.3,11,·,17,-3,-3.5,-4
COC(=O)c1sccc1NC(=S)N1CCCCC1,-0.4,-0.1,-0.6,-9%,4,-4,·,0
CCOC(=O)N/N=C\c1ccc(-c2cc(Cl)ccc2Cl)o1,0.2,-1.6,-5.9,1%,33,-6,0.0,14
O=C(O)c1cccc(-c2ccc(/C=N/n3cnc4sc5c(c4c3=O)CCCC5)o2)c1,0.6,3.5,7.7,14%,3,-8,·,22
Cc1ccc(NC(=O)CN2C(=O)NC(Cc3ccccc3)C2=O)cc1 (stereo not given),-0.2,3.6,2.4,·,-8,-16,·,3
O=C(NCC(=O)N1CCN(S(=O)(=O)c2ccc3c(c2)OCCO3)CC1)c1ccccc1Cl,-0.1,·,2.8,-2%,·,-6,-1.7,·
COc1ccc(CNC(=O)C(=O)NCCC2CCCCN2S(=O)(=O)c2ccc(C)cc2)cc1 (stereo not given),-0.6,0.3,-3.0,·,30,2,?,12
C[C@H](NC(=O)C1CC(=O)N(c2ccc3c(c2)OCCO3)C1)C(=O)NCc1ccco1 (stereo not given in full),0.2,0.7,-1.3,9%,-8,1,-0.5,5
N#Cc1ccc(C(=O)NCC2CCCCC2)cc1,0.0,2.5,-6.7,-6%,-4,3,-2.7,-3
CCOC(=O)n1c(=O)n(Cc2ccccc2C)c2ccccc21,-0.5,-1.7,1.8,29%,-4,3,0.4,4
COC(=O)c1c(N)sc(C(=O)NCCc2ccccc2)c1C,-8.8,1.2,4.5,·,6,8,6.2,51
CCc1ccc(OCC(=O)N2CCN=C2c2ccccc2)cc1,0.3,1.9,2.1,17%,4,-2,·,-3
CC(O)CNCc1ccc(Cl)cc1Cl (stereo not given),0.9,-2.4,2.4,·,-4,-6,0.1,-9
O=C(Cn1c2ccccc2c(=O)c2ccccc21)Nc1ccccc1F,-0.8,36*,4.0,-23%,-5,-3,5.5,21
O=c1cc(O)nc(-c2ccc(Cl)cc2)s1,-0.7,2.4,0.8,-1%,-7,-6,-4.1,-9
O=C1c2ccccc2NC2(CCCCC2)N1c1ccc(O)cc1,-4.4,0.6,1.6,0%,-5,2,·,5
CCc1nc2ccccc2c(C(=O)OCC(=O)N(C)Cc2ccccc2)c1C,0.7,·,-1.3,·,·,4,-2.1,·
COc1c(F)c(F)c(-c2csc(N)n2)c(F)c1F,2.3,3.2,3.2,·,7,·,·,3
COc1ccc(OC)c(CNC(=O)CCN2C(=O)COc3ccccc32)c1,0.6,1.0,1.8,11%,-2,3,·,14
Cc1cccc(C)c1NC(=O)C1CSC2(C)CCC(=O)N12 (stereo not given),-0.1,-2.4,1.4,5%,-4,-10,0.8,3
COc1cc(NC(=O)CCCc2c[nH]c3ccccc23)cc(OC)c1,0.1,4.0,3.5,20%,17,2,9.4,8
CCOc1ccc(C(=O)NC(=S)Nc2ncccc2C)cc1[N+](=O)[O-],-0.3,4.8,-0.8,·,-8,2,·,-9
COc1ccc(S(=O)(=O)NNC(=O)c2cccs2)cc1,1.0,0.8,-4.8,4%,-2,-3,-1.3,4
Cc1cc(=O)oc2c(C)c(OC(C)C(=O)N3CC[C@@]4(O)CCCC[C@H]4C3)ccc12 (stereo not given in full),0.9,1.8,5.7,·,-3,8,-7.0,-3
CC(=O)NNc1nc(-c2ccc(C)cc2)cs1,-0.3,1.3,-2.4,3%,8,-1,0.6,12
N#CC(C#N)=CC1=C2OC(c3ccccc3)=CC(c3ccccc3)=C2CCC1,0.0,6.4,5.2,6%,2,4,·,-12
CC(C)[C@H](NC(=O)c1ccc(F)cc1)C(=O)N(C)Cc1cccs1,1.1,·,-2.5,-1%,·,-2,-2.3,·
Cc1cccc(C)c1NC(=O)CNC(=O)c1cnccn1,0.3,·,-3.8,-9%,·,-3,2.1,·
O=C(NCc1ccccc1)C1=C[C@@H](c2coc3ccccc3c2=O)C[C@@H](OCCCCO)O1,0.0,0.6,1.1,·,-14,6,-0.9,7
COC(=O)c1cccc(NC(=O)c2cccnc2C(=O)O)c1C,-1.2,4.9,-4.1,2%,-4,0,-1.0,11
Cc1ccc(-n2c(C)cc(/C=C3/C(=N)N4C(c5ccccc5)=CSC4=NC3=O)c2C)cc1,-0.2,?,0.4,·,-5,0,·,-8
CN1CCN(C(=O)c2ccccc2NC(=O)CCN2C(=O)c3ccccc3C2=O)CC1,0.4,0.3,1.2,2%,2,-1,·,5

# Next entries:
SMILES,Bfl-1 A1 inh,RanGTP-Imp inh,LANA-H2B inh,Vif TR-FRET,T cruzi repl,Beta apoptosis,MLL AF4-AF9 inh,Calb FLC
N#Cc1ccc(C(=O)OCC(=O)N2CCN(C(=O)c3ccco3)CC2)cc1,-0.2,·,5.5,-10%,·,-1,-2.0,·
O=C(c1ccccc1)c1ccc(OC(=O)N2CCCC2)cc1,-0.8,-3.1,0.4,6%,10,-1,·,2
CC(C)CC(=O)Nc1ccc(F)c(Cl)c1,-0.6,3.5,2.0,1%,0,-2,·,-3
CN(C)S(=O)(=O)c1ccc(Cl)c(C(=O)OCC(=O)NC(=O)NC2CCCC2)c1,-0.3,·,-0.2,0%,·,-2,-0.1,·
CC1(C)OC(=O)CC1C(=O)NCc1ccccc1 (stereo not given),0.9,1.4,0.3,-1%,1,-3,·,-1
CCc1nnc(NS(=O)(=O)c2ccccc2)s1,1.0,?,-1.1,-8%,-2,-5,-5.5,-7
Cc1onc(-c2ccccc2)c1C(=O)NCCc1c[nH]c2ccccc12,0.1,-3.7,-0.3,0%,6,-10,·,23
COC(=O)c1c(NC(=O)c2ccco2)sc(C(=O)N2CCCC2)c1C,0.4,2.9,1.4,-9%,-14,·,-46,27
COc1cccc(N/C=C/C(=O)c2ccc(C)cc2)c1,-7.3,-2.7,-2.0,0%,-3,-1,6.3,-3
COc1ccc2oc(=O)cc(CN(C)Cc3ccccc3)c2c1,0.0,0.0,-1.8,·,27,6,-2.9,7
Cc1ccc(NCc2n[nH]c(=S)n2-c2cccc(Cl)c2)cc1,1.0,1.6,1.3,-3%,-13,-3,-4.8,19
CCCOc1ccc(NC(=O)CC2Nc3ccccc3NC2=O)cc1 (stereo not given),-0.1,-2.4,-1.9,0%,9,-1,-1.6,-2
CC(C)C(OC(=O)c1cc2sccc2n1C)C(=O)NCC1CCCO1 (stereo not given),0.0,-3.4,-3.1,6%,4,-4,·,-2
O=C(O)CCS(=O)(=O)c1cccc2cccnc12,0.5,?,1.0,7%,0,-2,·,25
O=C(NCc1n[nH]c(=S)n1-c1cccc(C(F)(F)F)c1)c1ccc(S(=O)(=O)N2CCCC2)cc1,-0.1,-3.7,0.5,·,1,1,-2.7,-7
Cc1cc2ccccc2nc1SCC(=O)N1CCCC1,0.9,4.9,3.8,10%,16,-7,·,-13
CC(C)(C)NC(=O)CN1CCCN(C(=O)c2cccc(S(=O)(=O)N3CCc4ccccc43)c2)CC1,0.1,·,-1.6,1%,·,2,3.2,·
CCOc1ccc(S(=O)(=O)NCCC(=O)NCCc2ccc(OCC)c(OCC)c2)cc1,1.0,2.6,1.8,-8%,6,2,-1.8,-6
OCCCC1CCCCN1Cc1nc(Cc2ccccc2Cl)no1 (stereo not given),-0.2,-1.0,1.5,-4%,-9,-5,-4.1,1
Clc1ccc(/C=N/N2CCN(Cc3ccccc3Cl)CC2)cc1,1.5,-4.0,3.2,2%,4,1,8.3,27
CCCCNC(=S)NC1CCCC1,1.0,1.4,4.5,·,-7,-1,·,0
COc1ccc(C2(C(=O)c3ccccc3)C(=O)c3ccccc3C2=O)cc1,-4.3,1.2,1.6,13%,2,2,·,-2
Cc1nnc2sc(SCc3ccc(Br)cc3)nn2c1=O,1.0,1.0,3.7,32%,-4,-4,-1.5,-7
Cc1ccc(OC(=O)C23CC4CC(CC(C4)C2)C3)c(C)n1,-0.9,-4.0,-2.4,26%,-5,-9,·,2
COc1ccc(CN=CC2=C(O)CC(C)(C)CC2=O)cc1,-0.6,-4.3,6.3,-2%,-6,-3,·,3
COc1cc(OC)cc(C(=O)n2cnnc2N)c1,0.2,-2.0,1.8,5%,-17,-7,·,3

# Screening data as filed in PubChem BioAssay.
